RecA intein inh: inhibitors of M. tuberculosis RecA intein splicing | actives 0.75% (n = 290,000) | AID 2221 | cell-free RecA intein splicing, fluorescence | inhibition, %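 (about 9 µM by stock and volumes)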; in the data active means inhibition above about 30%; inconclusive means no clear call, values can overlap the other calls;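 further: 0% = vehicle wells and 100% = reference inhibitor control wells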
Target sequence (P9WHJ3 whole entry, looked up): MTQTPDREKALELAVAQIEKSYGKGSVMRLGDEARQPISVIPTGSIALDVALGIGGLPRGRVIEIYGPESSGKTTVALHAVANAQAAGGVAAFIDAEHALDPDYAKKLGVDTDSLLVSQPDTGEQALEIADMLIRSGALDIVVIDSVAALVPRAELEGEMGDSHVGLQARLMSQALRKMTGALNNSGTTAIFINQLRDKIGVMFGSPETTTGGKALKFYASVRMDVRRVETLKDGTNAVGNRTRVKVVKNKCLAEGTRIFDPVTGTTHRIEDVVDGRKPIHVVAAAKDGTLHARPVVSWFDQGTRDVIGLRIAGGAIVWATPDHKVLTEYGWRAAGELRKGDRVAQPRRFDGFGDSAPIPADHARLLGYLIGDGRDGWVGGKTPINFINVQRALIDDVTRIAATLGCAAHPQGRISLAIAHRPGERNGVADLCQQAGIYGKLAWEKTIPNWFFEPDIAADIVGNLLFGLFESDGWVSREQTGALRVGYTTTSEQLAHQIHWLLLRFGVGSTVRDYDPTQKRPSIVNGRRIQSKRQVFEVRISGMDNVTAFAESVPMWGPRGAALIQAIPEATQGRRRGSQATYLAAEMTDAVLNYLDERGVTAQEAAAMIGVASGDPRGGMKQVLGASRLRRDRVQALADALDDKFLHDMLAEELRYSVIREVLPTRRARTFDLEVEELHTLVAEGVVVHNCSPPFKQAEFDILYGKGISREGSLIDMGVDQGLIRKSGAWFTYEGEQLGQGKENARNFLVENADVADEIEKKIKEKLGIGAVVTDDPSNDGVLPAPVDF
YopH PTP inh: blocks Yersinia enterocolitica YopH tyrosine phosphatase. AID 898. actives 0.16% (n = 140,000). fluorescence Ex485/Em525. inhibition, %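 (about 10 µM by stock and volumes)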;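 active means inhibition of 50% or more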;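 further: controls were vehicle for no effect and minimum signal wells for full effect; inactives centre near -20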
Mtb betalactam: beta-lactam sensitization of Mtb H37Rv; inhibition, % at 25 µM; M. tuberculosis H37Rv growth with meropenem, percent inhibition; hits of this screen are not shown here; actives 0.27% (n = 330,000);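 active means about 74% or more and at least 40 points above the plate without the antibiotic, then above 30% in a dose series; inconclusive means first-round hits that could not be retested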;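 further: growth measured after seven days incubation then overnight dye step; 0% = bacteria only wells and 100% = bacteria with antibiotic; twin plates without the antibiotic show which effects depend on it; some results filed as inactive read as strong as hits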
Mtb H37Rv: M. tuberculosis H37Rv growth inhibitors, H37Rv strain (AID 1626); M. tuberculosis H37Rv growth inhibition; higher % means a stronger effect; inhibition, % at 10 µM, or IC50 in µM where a hit was titrated; actives 0.95% (n = 220,000);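 active means confirmed in a dose series; inconclusive means inhibition above 80% but not taken into the dose series; inactive means below 80% or under 30% at every dose of the series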;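 further: bacteria incubated seven days before Alamar blue readout; 0% = bacteria only wells and 100% = bacteria with antibiotic wells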
Arbovirus inh: antivirals against arbovirus infection | arbovirus infection cell-based antiviral screen | inhibition, % at 10 µM | actives 0.37% (n = 200,000) | AID 1251;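 active means inhibition from about 30%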;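 further: bluetongue infection of BSR cells; cell survival read as ATP light after 72 h; 0% = infected wells without compound and 100% = uninfected wells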
Arbovirus inh repeat: also measured in Arbovirus inh; calls as there; inhibition, %; measured here: 10K subset replicate screen; many hits read low in the repeat;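 first of two repeat runs on a subset; 0% = infected and 100% = uninfected wells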
Active calls of the source: *; ? = inconclusive; / = no result given. An excerpt (hit frequency here may not be typical).

SMILES	RecA intein inh	YopH PTP inh	Mtb betalactam	Mtb H37Rv	Arbovirus inh	others
COC(=O)C(C)n1cnc2c(cnn2-c2ccc(Cl)cc2)c1=O (stereo not drawn)	3.1	2	35	-1%	13
CCN(c1ccccc1)S(=O)(=O)c1ccc2c(c1)CC(C)N2C(=O)C1CC1 (stereo not drawn)	6.6	/	0	/	/
C/C(=N/NC(=O)CNc1ccc(C)cc1)c1ccc(Br)s1	-1.2	-1	47	-1%	-3
CC1(c2nnc(-c3cccc(Cl)c3)o2)CC(c2ccc(Cl)cc2)=NO1 (stereo not drawn)	4.9	/	-6	-9%	/
O=C1CCCc2oc3c(cc(NS(=O)(=O)c4ccc5c6c(cccc46)C(=O)N5)c4ccccc43)c21	13	/	85	58%	/
COc1ccccc1N/N=C/c1ccc2c(c1)OCO2	-3.9	-19	12	-1%	-25
CCN1CCN(c2nc3c(C)cccn3c(=O)c2/C=C(\C#N)C(=O)NCCCOC)CC1	-193	/	-1	/	/
CCCn1nc(C(=O)NCc2ccc3c(c2)OCO3)c2ccccc2c1=O	1.8	/	2	14%	-5
C=CCn1c(SCC(=O)c2cc(C)n(Cc3cccs3)c2C)nnc1-c1ccncc1	0.2	-15	-7	7%	5
O=C1CC2(CCN(C(=O)COc3ccc(Cl)cc3)CC2)Oc2ccccc21	0.2	/	28	/	/
NC(=S)N/N=C1\CC(n2nnnc2-c2ccccc2)C2COC1O2 (stereo not drawn)	0.1	/	-4	-5%	/
CCc1cc2c(=O)c(-c3nc4ccccc4n3C)c(C)oc2cc1OC(C)=O	5.0	/	-3	/	/
Fc1ccccc1N1CCN(c2nnnn2-c2ccccc2)CC1	3.7	/	1	-3%	8
Cc1cc(N2CC(C(=O)NCc3cccnc3)CC2=O)ccc1C(C)C (stereo not drawn)	-5.5	/	-2	4%	/
CCOC(=O)/C=C1\SCC(=O)N1CC(=O)NC1CCCCC1	-1.0	-25	2	1%	6

Ordered by heavy-atom count (highest first): some entries from above
SMILES	RecA intein inh	YopH PTP inh	Mtb betalactam	Mtb H37Rv	Arbovirus inh	others
CCN1CCN(c2nc3c(C)cccn3c(=O)c2/C=C(\C#N)C(=O)NCCCOC)CC1	-193	/	-1	/	/
CCc1cc2c(=O)c(-c3nc4ccccc4n3C)c(C)oc2cc1OC(C)=O	5.0	/	-3	/	/
CC1(c2nnc(-c3cccc(Cl)c3)o2)CC(c2ccc(Cl)cc2)=NO1 (stereo not drawn)	4.9	/	-6	-9%	/
NC(=S)N/N=C1\CC(n2nnnc2-c2ccccc2)C2COC1O2 (stereo not drawn)	0.1	/	-4	-5%	/

The results go on:
SMILES	RecA intein inh	YopH PTP inh	Mtb betalactam	Mtb H37Rv	Arbovirus inh	others
CC1CN(/C=C/C(=O)C(F)(F)F)CC(C)O1 (stereo not drawn)	0.0	/	3	4%	9
C=CCNC(=S)NC(=O)c1oc2ccccc2c1C	2.3	/	8	0%	11
CCOc1ccccc1-n1nnnc1SCC(=O)OC	1.3	/	4	-14%	3
CC(c1ccccc1)N(CCC(c1ccccc1)C1CCOC(C)(C)C1)C(=O)c1ccco1 (stereo not drawn)	20	-1	14	10%	-25
Cc1ccc(S(=O)(=O)NCc2ccccn2)c(C)c1C	1.2	/	-13	/	/
Cc1ccc(NC(=O)CCN2C(=O)c3cccc([N+](=O)[O-])c3C2=O)c(Br)c1	-1.7	/	35	/	/
CC1CCN(c2ccc(C(=O)O)cc2N)CC1	0.8	-28	-9	-1%	-2
CCCCOc1ncnc2c1[nH]c1ccc(OCC)cc12	-0.2	9	27	3%	0
O=C1C(Cc2ccccc2)Nc2ncnc(N3CCCCC3)c2N1Cc1ccc(Cl)cc1 (stereo not drawn)	9.6	/	4	/	/
CC(=O)c1ccc(OCc2cc(C(=O)N3CCN(c4ccccc4)CC3C)no2)cc1 (stereo not drawn)	0.4	/	20	/	/
OCc1nc2ccccc2n1CCc1ccccc1	-1.3	/	0	/	/
COc1cc(Nc2nc(SCC#N)nc3ccccc23)cc(OC)c1OC	4.2	-34	2	-3%	-2
CCCCSC(=S)N(C)C1CCS(=O)(=O)C1 (stereo not drawn)	-4.6	-16	-15	1%	16
CCn1cnc2sc(C(=O)Nc3ccccc3OC)c(C)c2c1=O	-0.2	/	-1	2%	/
O=C1CCC(C(=O)NCCN2C(=O)S/C(=C\c3cccnc3)C2=O)=NN1	1.9	/	-2	-1%	7
CCOC(=O)/C(=N\Nc1cc(Cl)ccc1Cl)N1CCN(C)CC1	0.0	-10	1	9%	-39
O=C(c1ccc2c(c1)OCO2)N1CCC2(CC1)OCCO2	0.0	-21	?	2%	-3	Arbovirus inh repeat=0
CCCN1C(=O)C2(C(C(=O)c3ccc(C)o3)=C(O)C(=O)N2CCCN2CCOCC2)c2ccccc21 (stereo not drawn)	-2.7	-24	/	-4%	-3
CC(Sc1nc2ccccc2[nH]1)C(=O)Nc1ccccc1F (stereo not drawn)	-0.3	/	6	-5%	7
O=C(ON=C1CCN(S(=O)(=O)c2ccccc2)CC1)c1ccc(F)cc1	3.2	-13	0	-10%	11
O=C(CN1CCCCC1)Nc1ccccc1Cl	0.2	/	0	-4%	-7
Cc1cccc(NS(=O)(=O)c2ccc(-n3cccn3)cc2)c1C	-2.1	/	5	/	/
Cc1ccccc1OCC(=O)NNC(=O)c1ccc2c(=O)n3c(nc2c1)CCC3	0.6	/	-9	/	/
COC(=O)CN1C(=O)[C@H]2[C@@H](c3ccc(C)o3)N3C(=O)CN(CCO)C(=O)[C@@]3(Cc3ccccc3)[C@H]2C1=O	0.6	/	-10	/	/
CC(C)(O)[C@H]1O[C@H]2CC[C@@]3(C)[C@@](O)(CC[C@H]4Cc5c([nH]c6ccccc56)[C@@]43C)C2=CC1=O	8.0	/	39	2%	-30
COc1ccc(NC(=O)C(C)N2C(=O)c3ccccc3C2=O)c(OC)c1 (stereo not drawn)	1.3	/	-3	/	/
O=C(NCCC1CCCCN1S(=O)(=O)c1cccs1)C(=O)Nc1ccccc1 (stereo not drawn)	2.0	/	-4	/	/
CCOC(=O)Cc1csc(NC(=O)CSc2nnc(C(C)C)n2C)n1	0.1	-33	0	5%	1
CC(C)Cn1c(=S)[nH]c2cc(C(=O)O)ccc2c1=O	-1.3	/	-8	-8%	/
O=C(NCc1ccccn1)C(=O)NCC1OCCCN1S(=O)(=O)c1ccc(F)cc1 (stereo not drawn)	-2.3	/	-5	/	/

Random excerpt: 3 entries already listed
SMILES	RecA intein inh	YopH PTP inh	Mtb betalactam	Mtb H37Rv	Arbovirus inh	others
O=C(NCCC1CCCCN1S(=O)(=O)c1cccs1)C(=O)Nc1ccccc1 (stereo not drawn)	2.0	/	-4	/	/
CC(C)(O)[C@H]1O[C@H]2CC[C@@]3(C)[C@@](O)(CC[C@H]4Cc5c([nH]c6ccccc56)[C@@]43C)C2=CC1=O	8.0	/	39	2%	-30
Cc1cccc(NS(=O)(=O)c2ccc(-n3cccn3)cc2)c1C	-2.1	/	5	/	/

The list goes on:
SMILES	RecA intein inh	YopH PTP inh	Mtb betalactam	Mtb H37Rv	Arbovirus inh	others
Cc1ccccc1NC(=O)CNC(=O)Cc1cccc2ccccc12	3.4	/	-1	/	/
O=S(=O)(c1ccc(F)c(F)c1)N1CCCc2ccccc21	3.6	/	1	/	/
CC(C)(C)NS(=O)(=O)c1ccc(NS(C)(=O)=O)cc1	1.9	-9	-11	-8%	10
CC(=O)Nc1ccc(S(=O)(=O)N(CCO)Cc2ccccc2)cc1	1.2	-16	-6	-5%	2
CSCCC(=O)N1CC[C@@H](N2CCN(c3ccccc3F)CC2)[C@H](O)C1	-0.9	/	-4	/	/
CN1C(=O)C(=Cc2ccc(N3CCCCC3)o2)C(=O)N(C)C1=S	-2.5	-39	68	11%	0
COc1ccc(Br)cc1/C=N/NC(=O)C[n+]1ccccc1	-13	/	-6	/	/
O=C(Nc1ccccc1)Nc1ccc(C(F)(F)F)cn1	-0.9	/	-3	-3%	/
Cc1cc(C)nc(NS(=O)(=O)c2ccc(NC(=O)COc3ccccc3)cc2)n1	1.0	-7	-1	-11%	8
Cc1cc(C)cc(NC(=O)C(C)N2C(=O)c3ccccc3C2=O)c1 (stereo not drawn)	1.8	/	-4	/	/
CC(=O)Nc1ccc(NC(=O)c2ccccc2Nc2ccccc2)cc1	-0.4	/	3	/	/
CCc1ccc(OCCCC(=O)Nc2nccs2)cc1	5.0	/	6	-4%	9
CCc1ccccc1NC(=O)C(Cc1cccc(OC)c1OC)c1nn[nH]n1 (stereo not drawn)	-1.3	-34	-7	-7%	12
CSc1ccc(Cl)c(C(=O)Nc2ccc(N3CCOCC3)cc2)c1	-2.6	/	-4	4%	7
CN(CC(=O)Nc1cccc(F)c1)C(=O)c1cc(S(=O)(=O)N(C)C)ccc1N1CCCC1	4.3	/	-9	/	/
Cc1nc(NCc2ccccc2)c(C(N)=O)c2c1COC(C)(C)C2	4.2	-21	-1	3%	1
CC(=O)Nc1ccc(NC(=O)CSc2ccc(-c3ccc4c(c3)OCO4)nn2)cc1	0.1	-1	-1	-5%	-5
CCc1c(C(=O)NNC(=S)NCC(C)C)csc1C	0.1	13	-15	-11%	-3
CN(c1ccccc1)S(=O)(=O)c1ccc(C(=O)NCc2ccccn2)cc1	0.9	/	7	-2%	2
CCN(CC)C(=O)c1ccccc1NS(=O)(=O)c1cccs1	0.4	/	8	/	/
Cc1cc(=O)oc2c(C)c(OCC(=O)N3CCN(Cc4ccc5c(c4)OCO5)CC3)ccc12	-0.9	/	1	/	/
Cc1csc(NC(=O)CSC2=NCCS2)n1	5.2	/	-10	/	/
O=C(NN=C1CCCC1)c1sc2ccccc2c1Cl	-0.6	/	97	58%	-8
CC(C)C(=O)Nc1ccc(-c2nc3ccccc3c(=O)o2)cc1	23	/	90	?	5
CC(C)(CSc1ccccn1)NS(=O)(=O)c1ccc(Cl)cc1	0.6	-12	2	-3%	0
COc1ccc(C(CC(=O)Nc2ccc(F)cc2)c2ccccc2)cc1 (stereo not drawn)	1.6	-33	4	1%	8
Cc1ccc(NCc2nnc(SCC(=O)N(Cc3ccccc3)C(C)(C)C)o2)c(C)c1	7.2	3	4	8%	-15
Cc1cc(C)cc(NC(=O)C(=O)NCc2ccccn2)c1	0.0	-2	6	3%	1
CCCn1c(CC)nc([N+](=O)[O-])c1Sc1ccc(F)cc1	8.7	-34	5	3%	5
COc1cccc2cc(C(=O)NCc3ccccn3)c(=O)oc12	7.9	-36	48	-2%	6
COc1cc2c(cc1OC)C(C)N(C(=O)c1cc3c(s1)-c1ccccc1OC3)CC2 (stereo not drawn)	12	-23	4	/	1
O=C(Nc1ccc(S(=O)(=O)N2CCc3ccccc3C2)cc1)c1ccccc1	1.6	-12	-5	-4%	-3
CCCNc1c(NS(=O)(=O)c2ccc(Br)cc2)c(=O)oc2ccccc12	-1.1	/	?	/	/
CN(C)CCNC(=O)c1[nH]nc2c1CCc1ccccc1-2	0.4	/	0	/	/
CCOc1ccc(Cc2c(O)[nH]c(=O)[nH]c2=O)cc1	-2.7	-30	1	-9%	14
CC1CC(=O)N(c2ccc(Br)cc2)C(=O)C1	-0.7	/	0	0%	/
Cc1ccc(S(=O)(=O)NCCC(=O)Nc2cc(F)ccc2C)cc1C	1.0	/	6	/	/
CC(C)c1nnc(NC(=O)CSc2nnc(-c3ccco3)o2)s1	-1.9	/	7	0%	3
COC(=O)c1c(NC(=O)C2CCCO2)sc2c1CCC2 (stereo not drawn)	-2.3	-16	19	8%	-8
COc1ccccc1C(=O)NCCC(=O)NCC(C)(C)N1CCOCC1	-2.5	/	-5	/	/
CC(=O)Nc1nnc(SCC(=O)NCC2CCCO2)s1 (stereo not drawn)	1.9	/	12	-3%	-3	Arbovirus inh repeat=-1
COc1ccc(CNC(=O)CSc2n[nH]c(C)c2[N+](=O)[O-])cc1	-6.4	-27	8	-3%	-4
Cc1c(Cl)c([N+](=O)[O-])nn1CC(=O)NCc1cccs1	1.9	-43	6	6%	-6
Cc1cccc([C@@H]2C[C@H]3CN(Cc4cccc(Cl)c4)C(=O)[C@]34CCCN24)n1	0.5	/	-4	3%	2
CC(=O)c1ccc(OCCCC(=O)Nc2cc(S(=O)(=O)N(C)C)ccc2C)cc1	0.2	-2	0	-4%	3
O=S(=O)(c1ccc(Cl)cc1)c1cnc2ccccc2n1	27	/	97	?	3
O=C(Nc1ccccc1)Nc1ccc(-n2ccc(C(F)(F)F)n2)cc1	1.0	/	3	-7%	/
CN(Cc1ccccc1)Cc1nc2scc(-c3ccccc3)c2c(=O)[nH]1	6.2	/	1	-1%	9
CCCCCC(=O)N1CC2(CC(c3cccc(NC(=O)c4ccccc4)c3)=NO2)C[C@@H]1C(N)=O (stereo partly drawn)	-1.5	-19	-7	-8%	4
Cc1nc(-c2ccc(C(=O)Nc3ccccc3F)cc2)cs1	0.2	/	1	7%	-12
Cc1nc(SCC(=O)NC(C)c2ccccc2)c2oc3ccccc3c2n1 (stereo not drawn)	-2.6	-1	5	0%	1
CCOC(=O)c1cnn(-c2ccccc2)c1N	0.9	-1	-4	9%	-1
